FGF22 binding – binders of human FGF22 protein, primary screen, FGF22 synaptogenesis inhibitor project, biophysical, thermal shift, single point; Fibroblast growth factor 22 (Homo sapiens), Q9HCT0; recombinant FGF22 thermal shift, SYPRO orange fluorescence; percent of sucrose octasulfate shift, DMSO zero; calls only at 9.99 µM; hit rate 1.5% among 340,000; AID 651658, 2012;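 active means melting point raised past a set limit in the mean and every replicate; three in four hits are not shown here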
Target sequence (Q9HCT0 whole entry, looked up): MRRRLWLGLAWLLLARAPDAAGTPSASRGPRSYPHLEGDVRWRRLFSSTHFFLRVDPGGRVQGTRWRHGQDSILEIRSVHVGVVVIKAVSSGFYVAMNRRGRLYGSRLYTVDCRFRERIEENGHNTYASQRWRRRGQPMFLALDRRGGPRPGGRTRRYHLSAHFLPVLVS
MLL AF4-AF9 inh – inhibitors of AF4 peptide binding to AF9, primary screen, biochemical, AlphaScreen, biotin-AF4 peptide, FLAG-AF9, single point | Protein AF-9 (Homo sapiens), P42568 | inhibition, % at 10 µM | hit rate 0.47% among 350,000 | AID 651704, 2012;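 active means every replicate reaching a set inhibition limit, whatever the replicate mean, cut at about 25% in these data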;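 further: 0% = plate neutral control median and 100% = total signal loss; the record names both 10 and 1 µM as test concentration; the first replicate is given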
Target sequence (P42568 whole entry, looked up): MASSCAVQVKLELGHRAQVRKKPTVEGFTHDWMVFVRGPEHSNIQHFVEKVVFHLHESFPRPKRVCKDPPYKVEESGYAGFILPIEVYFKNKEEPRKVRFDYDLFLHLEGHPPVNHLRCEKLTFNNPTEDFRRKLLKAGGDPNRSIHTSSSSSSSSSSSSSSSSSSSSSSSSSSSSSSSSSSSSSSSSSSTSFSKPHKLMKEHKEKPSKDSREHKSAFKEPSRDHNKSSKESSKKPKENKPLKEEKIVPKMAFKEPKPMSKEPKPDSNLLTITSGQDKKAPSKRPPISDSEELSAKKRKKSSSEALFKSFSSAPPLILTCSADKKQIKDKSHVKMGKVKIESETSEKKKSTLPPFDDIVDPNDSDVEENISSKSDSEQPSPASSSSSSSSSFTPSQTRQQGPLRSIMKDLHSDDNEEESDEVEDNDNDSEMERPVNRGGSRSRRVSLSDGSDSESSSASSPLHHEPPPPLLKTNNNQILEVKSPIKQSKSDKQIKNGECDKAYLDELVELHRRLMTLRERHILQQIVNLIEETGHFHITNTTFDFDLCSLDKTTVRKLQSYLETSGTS
Active calls of the source: *; i = inactive; + = active, no number.

The line under a structure holds: FGF22 binding	MLL AF4-AF9 inh
CC(=O)N(C)C[C@H]1Oc2cc(C#CC(C)(C)O)ccc2S(=O)(=O)N([C@H](C)CO)C[C@H]1C
    i	-2.0
COc1cccc(S(=O)(=O)N[C@@H]2CC[C@H](CCn3cc(-c4ccccc4OC)nn3)O[C@@H]2CO)c1
    i	1.1
CC(=O)N(C)C[C@H]1Oc2ncc(C#CC(C)(C)O)cc2C(=O)N([C@@H](C)CO)C[C@H]1C
    i	-21.6
COc1cccc(S(=O)(=O)Nc2ccc3c(c2)[C@@H]2C[C@H](CC(=O)NCC(F)(F)F)O[C@H](CO)[C@@H]2O3)c1
    i	0.2
C[C@@H]1CN([C@@H](C)CO)C(=O)Cc2cc(NS(=O)(=O)c3ccc(Cl)cc3)ccc2O[C@H]1CN(C)S(=O)(=O)c1cn(C)cn1
    i	0.1
CO[C@@H]1CN(C)C(=O)c2cc(NC(=O)Nc3ccc(C(F)(F)F)cc3)ccc2OC[C@@H](C)NC[C@@H]1C
    i	12.7
C/C=C/c1ccc([C@H]2[C@@H](CO)N3CCCCN(S(=O)(=O)c4ccc(F)cc4)C[C@H]23)cc1
    i	5.7
O=C(C[C@H]1CC[C@@H](NS(=O)(=O)c2ccc(F)cc2)[C@H](CO)O1)NC1CCC1
    i	-0.7
CCNC(=O)C[C@@H]1CC[C@@H]2[C@H](COc3ccc(NC(=O)Nc4ccc(Cl)cc4)cc3C(=O)N2C)O1
    i	0.3
C[C@H]1CN([C@@H](C)CO)S(=O)(=O)c2ccc(Br)cc2O[C@@H]1CN(C)C
    i	-3.2
C[C@H](CO)N1C[C@H](C)[C@H](CN(C)Cc2ccc(Cl)c(Cl)c2)Oc2ccc(NS(=O)(=O)c3ccc(Cl)cc3)cc2CC1=O
    i	-2.4
COCC(=O)Nc1ccc2c(c1)C(=O)N(C)[C@H]1CC[C@H](CC(=O)NCC3CC3)O[C@H]1CO2
    i	0.9
CCC(=O)N[C@H]1C=C[C@H](CC(=O)NCc2ccccc2OC)O[C@H]1CO
    i	-1.2
Cc1noc(C)c1S(=O)(=O)N(C)C[C@H]1OCCCC[C@@H](C)Oc2ccc(NC(=O)c3ccccc3)cc2C(=O)N([C@@H](C)CO)C[C@@H]1C
    i	-1.1
C[C@H]1CN([C@@H](C)CO)C(=O)c2cc(NC(=O)Nc3cccc4ccccc34)ccc2O[C@H]1CN(C)Cc1ccc(C(=O)O)cc1
    i	3.7
CCCC#Cc1ccc2c(c1)O[C@H](CN(C)C)[C@@H](C)CN([C@@H](C)CO)S2(=O)=O
    i	0.3
COc1ccc(NC(=O)Nc2ccc3c(c2)C(=O)N([C@@H](C)CO)C[C@@H](C)[C@H](CN(C)C(=O)CCCN(C)C)OCCCC[C@H](C)O3)cc1
    i	10.2
O=C(C[C@@H]1CC[C@@H]2[C@H](COC[C@H](O)CN2Cc2cccc(C(F)(F)F)c2)O1)NCc1ccncc1
    i	-0.1
C[C@@H]1CN([C@H](C)CO)C(=O)c2cccc(NC(=O)Nc3cccc4ccccc34)c2O[C@H]1CN(C)S(=O)(=O)c1ccc(Cl)cc1
    i	1.3
CC(=O)N(C)C[C@H]1Oc2cc(-c3ccccc3)ccc2S(=O)(=O)N([C@@H](C)CO)C[C@@H]1C
    i	1.3
CCN(C[C@@H]1[C@H](c2ccccc2)[C@H](CO)N1C(=O)COC)S(C)(=O)=O
    i	-1.7
C[C@@H]1CN([C@@H](C)CO)C(=O)Cc2cc(NC(=O)Nc3cccc4ccccc34)ccc2O[C@@H]1CN(C)Cc1ccccc1
    i	0.7
C[C@@H]1CN([C@@H](C)CO)C(=O)Cc2cc(NC(=O)C3CCCCC3)ccc2O[C@@H]1CN(C)C(=O)Nc1ccc2c(c1)OCO2
    i	-0.7
C[C@@H]1CN([C@H](C)CO)C(=O)c2cc(NC(=O)CCCN(C)C)ccc2O[C@@H](C)CCCCO[C@H]1CN(C)Cc1ccc(C(F)(F)F)cc1
    i	2.3
O=C(C[C@H]1CC[C@H](NC(=O)c2cccnc2)[C@@H](CO)O1)NCc1ccncn1
    i	-2.7
CCN(C[C@@H]1[C@@H](c2ccccc2)[C@H](CO)N1C(C)=O)C(=O)c1ccccn1
    i	-2.5
COc1ccc(S(=O)(=O)N[C@H]2C=C[C@H](CC(=O)NCCc3ccncc3)O[C@@H]2CO)cc1
    i	2.8
CC(C)C#Cc1cnc2c(c1)C(=O)N([C@H](C)CO)C[C@H](C)[C@H](CN(C)C(=O)CC1CC1)O2
    i	-2.4
CCNC(=O)C[C@@H]1CC[C@H]2[C@@H](COC[C@H](O)CN2Cc2ccccc2F)O1
    i	0.6
CCNC(=O)C[C@@H]1CC[C@H]2[C@@H](COC[C@@H](O)CN2C(=O)C2CCOCC2)O1
    i	-1.2
COc1ccc(NC(=O)Nc2ccc3c(c2)[C@@H]2C[C@H](CC(=O)NCc4ccc(-c5ccccc5)cc4)O[C@@H](CO)[C@@H]2O3)cc1
    i	2.6
O=C(NCCN1CCOCC1)[C@@]1(CCS(=O)(=O)c2ccccc2)N=C(c2ccc(OCCCO)cc2)O[C@H]1c1ccccc1
    i	4.3
CCCC#Cc1ccc2c(c1)O[C@@H](CN(C)S(=O)(=O)c1cccc(F)c1)[C@@H](C)CN([C@H](C)CO)S2(=O)=O
    i	-6.6
COc1ccc2c3c(n(C)c2c1)[C@H](CO)N(C(=O)CN1CCOCC1)CC31CCN(C(C)=O)CC1
    i	0.7
O=C(NCc1ccc(F)cc1)[C@H]1[C@H](CO)[C@H]2Cn3c(cccc3=O)[C@@H]1N2Cc1ccncc1
    i	1.1
C[C@@H]1CN([C@@H](C)CO)C(=O)c2cc(NC(=O)Nc3ccc(F)cc3)ccc2O[C@@H](C)CCCCO[C@H]1CN(C)C(=O)CCCN(C)C
    i	-3.6
COc1ccc(-c2cnc3c(c2)C(=O)N([C@H](C)CO)C[C@@H](C)[C@@H](CN(C)S(C)(=O)=O)O3)cc1
    i	-6.3
CO[C@H]1CN(C)C(=O)c2ccc(NC(=O)Nc3ccccc3F)cc2OC[C@H](C)N(C(C)=O)C[C@@H]1C
    i	-0.3
CCC(=O)N1C[C@H](C)[C@H](OC)CN(C)C(=O)c2cc(NC(=O)Nc3ccc(Cl)cc3)ccc2OC[C@@H]1C
    i	6.4
C[C@@H]1CN([C@@H](C)CO)C(=O)Cc2cc(NC(=O)CCCCCC(=O)Nc3ccccc3N)ccc2O[C@H]1CN(C)C(=O)Nc1ccc2c(c1)OCO2
    i	-1.0
CO[C@H]1CN(C)C(=O)c2ccc(NC(C)=O)cc2OC[C@H](C)N(Cc2ccccc2C(=O)O)C[C@@H]1C
    i	-0.6
Cn1cnc(S(=O)(=O)N2CCCCN3[C@H](CO)[C@@H](c4ccc(C#CC5CCCC5)cc4)[C@@H]3C2)c1
    i	-1.2
O=C(Nc1ccccc1)N[C@@H]1CC[C@H](CCNS(=O)(=O)c2ccccc2F)O[C@@H]1CO
    i	0.3
O=C(Cc1ccccc1)N1C[C@H]2[C@@H](c3ccccc31)[C@H](CO)N2C(=O)c1ccc(F)cc1
    i	2.0
COC(=O)c1cn(C[C@H](Cc2ccccc2)NC(=O)Nc2ccccc2)nn1
    i	-3.4
C[C@H]1CN([C@@H](C)CO)C(=O)c2cc(NS(=O)(=O)c3ccccc3)ccc2O[C@H]1CN(C)Cc1ccc(-c2ccccc2)cc1
    i	2.1
C[C@H]1CN([C@@H](C)CO)C(=O)c2cc(-c3ccc(F)cc3)cnc2O[C@H]1CN(C)Cc1cncnc1
    i	-7.5
Cc1ccc(-c2ccc([C@H]3[C@@H](CO)N4CCCCN(C)C[C@H]34)cc2)cc1
    i	13.6
C[C@@H]1CN([C@@H](C)CO)S(=O)(=O)c2ccc(C3=CCCCC3)cc2O[C@H]1CN(C)C(=O)C1CCC1
    i	3.3
C[C@H](CO)N1C[C@H](C)[C@H](CN(C)C(=O)Nc2ccc3c(c2)OCO3)Oc2ncc(C#Cc3cccc(F)c3)cc2C1=O
    i	12.2
C[C@H]1CN([C@@H](C)CO)S(=O)(=O)c2ccc(C#CC3CC3)cc2O[C@H]1CN(C)CC1CC1
    i	12.5
COc1ccc(NC(=O)N2CCC3(CC2)CN(C(=O)c2cccnc2)[C@@H](CO)c2[nH]c4cc(OC)ccc4c23)cc1
    i	4.7
C[C@H](CO)N1C[C@H](C)[C@H](CN(C)Cc2ccc(Oc3ccccc3)cc2)Oc2c(NC(=O)c3ccncc3)cccc2C1=O
    i	6.3
C[C@H]1CN([C@@H](C)CO)S(=O)(=O)c2ccc(-c3ccc(C#N)cc3)cc2O[C@@H]1CN(C)C(=O)CN(C)C
    i	0.7
Cc1ccc(S(=O)(=O)N(C)C[C@@H]2OCCCC[C@@H](C)Oc3ccc(NS(=O)(=O)c4cccs4)cc3C(=O)N([C@H](C)CO)C[C@H]2C)cc1
    i	1.6
C[C@@H]1CN([C@H](C)CO)C(=O)c2cc(N(C)C)ccc2O[C@@H](C)CCCCO[C@@H]1CN(C)C
    i	1.2
CC=Cc1ccc2n(c1=O)C[C@@H]1[C@@H](CO)[C@H](C(=O)NCC)N(CCC(F)(F)F)[C@H]21 (mixture of isomers)
    i	-2.6
O=C(N[C@H]1CC[C@H](CCNS(=O)(=O)c2cccc(Cl)c2)O[C@H]1CO)c1ccc(F)cc1
    i	-1.6
O=S(=O)(Cc1ccccc1)NCC[C@@H]1CC[C@H](NS(=O)(=O)c2ccccc2)[C@H](CO)O1
    i	0.4
Cc1noc(C)c1S(=O)(=O)Nc1ccc2c(c1)C(=O)N([C@H](C)CO)C[C@@H](C)[C@@H](CN(C)C(=O)c1ccncc1)OCCCC[C@H](C)O2
    i	0.2

In the list so far, these have two or more sulfur atoms.
The line under a structure holds: FGF22 binding	MLL AF4-AF9 inh
C[C@@H]1CN([C@@H](C)CO)C(=O)Cc2cc(NS(=O)(=O)c3ccc(Cl)cc3)ccc2O[C@H]1CN(C)S(=O)(=O)c1cn(C)cn1
    i	0.1
CCCC#Cc1ccc2c(c1)O[C@@H](CN(C)S(=O)(=O)c1cccc(F)c1)[C@@H](C)CN([C@H](C)CO)S2(=O)=O
    i	-6.6
Cc1ccc(S(=O)(=O)N(C)C[C@@H]2OCCCC[C@@H](C)Oc3ccc(NS(=O)(=O)c4cccs4)cc3C(=O)N([C@H](C)CO)C[C@H]2C)cc1
    i	1.6
O=S(=O)(Cc1ccccc1)NCC[C@@H]1CC[C@H](NS(=O)(=O)c2ccccc2)[C@H](CO)O1
    i	0.4

Three compounds already listed, ordered by SMILES length, largest number first:
The line under a structure holds: FGF22 binding	MLL AF4-AF9 inh
C[C@@H]1CN([C@@H](C)CO)C(=O)c2cc(NC(=O)Nc3ccc(F)cc3)ccc2O[C@@H](C)CCCCO[C@H]1CN(C)C(=O)CCCN(C)C
    i	-3.6
COc1ccc(NC(=O)Nc2ccc3c(c2)[C@@H]2C[C@H](CC(=O)NCc4ccc(-c5ccccc5)cc4)O[C@@H](CO)[C@@H]2O3)cc1
    i	2.6
O=C(NCCN1CCOCC1)[C@@]1(CCS(=O)(=O)c2ccccc2)N=C(c2ccc(OCCCO)cc2)O[C@H]1c1ccccc1
    i	4.3

Going on with the list.
The line under a structure holds: FGF22 binding	MLL AF4-AF9 inh
N#Cc1ccc(-c2ccc([C@@H]3[C@@H](CO)N4CCCCN(C(=O)Nc5ccc(F)cc5)C[C@H]34)cc2)cc1
    i	-4.8
O=C(C[C@@H]1C[C@@H]2c3cc(NC(=O)Nc4ccccc4F)ccc3O[C@@H]2[C@@H](CO)O1)NC1CCCC1
    i	-8.2
CN1C(=O)c2cc(NC(=O)c3cccs3)ccc2OC[C@H]2O[C@@H](CC(=O)O)CC[C@H]21
    i	-0.6
COc1ccc(C[C@H]2CCc3cnnn3COC[C@H](Cc3ccccc3)NC2=O)cc1
    i	5.7
C[C@@H]1CN([C@H](C)CO)C(=O)c2cccc(NC(=O)c3nc4ccccc4s3)c2O[C@@H]1CN(C)C(=O)Nc1ccc(F)cc1
    i	6.4
CCCNC(=O)[C@@H]1[C@@H](CO)[C@@H]2Cn3c(cccc3=O)[C@@H]2N1C(=O)C1CCCC1
    i	-17.3
CO[C@@H]1CN(C)C(=O)c2ccc(NC(=O)C3CC3)cc2OC[C@H](C)N(C(=O)CN2CCOCC2)C[C@@H]1C
    +	4.8
CCNC(=O)C[C@@H]1CC[C@@H]2[C@@H](COc3ccc(NC(=O)Nc4cccc(Cl)c4)cc3C(=O)N2C)O1
    i	2.1
CC(C)NC(=O)N(C)C[C@@H]1Oc2ccc(NC(=O)Nc3ccc(C(F)(F)F)cc3)cc2CC(=O)N([C@@H](C)CO)C[C@H]1C
    i	2.3
C[C@H](O)C#Cc1cnc2c(c1)C(=O)N([C@H](C)CO)C[C@@H](C)[C@H](CN(C)Cc1cccc(F)c1)O2
    i	-2.3
COc1ccc(-c2ccc([C@@H]3[C@@H](C#N)N(C(=O)C4CCC4)[C@H]3CO)cc2)cc1
    i	-0.1
CCC(=O)N(C)C[C@@H]1Oc2ncc(-c3ccccc3OC)cc2C(=O)N([C@H](C)CO)C[C@@H]1C
    i	-2.1
O=C([C@@H]1[C@@H](CO)[C@@H]2Cn3c(ccc(-c4cccnc4)c3=O)[C@H]1N2Cc1cccnc1)N1CCOCC1
    i	-10.9
C[C@@H]1CN([C@@H](C)CO)C(=O)c2cccc(NS(=O)(=O)c3ccccc3)c2O[C@@H]1CN(C)Cc1ccc2c(c1)OCO2
    i	3.6
CS(=O)(=O)N1CC(=O)N2[C@H](CO)[C@@H](c3ccc(C#CCC4CCCC4)cc3)[C@H]2C1
    i	4.9
C[C@@H]1CN([C@@H](C)CO)C(=O)c2cccc(NS(=O)(=O)c3cccs3)c2O[C@@H]1CN(C)CC1CCCCC1
    i	0.6

Bioassay records deposited in PubChem BioAssay by Broad Institute.

Not all compounds are listed; rates above refer to the full screens.
